# A488 autofl: compound fluoresces in the A488 spectral region | 0.1% of 59,000 active | compound autofluorescence, A488 spectral region, dye equivalency; active compounds read high | max dye equivalency, M; active = above 10 nM dye equivalent; inconclusive = 1 to 10 nM; inactive = 1 nM or less; about half of its hits are not listed in these tables;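 also: highest value over a series up to 38 µM; compound alone in buffer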
#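 Compound autofluorescence was read in 100 mM Tris pH 8.0 after 15 min at room temperature, ex 480 nm/em 540 nm. Intensities were converted to A488 dye-equivalent concentration using an on-plate six-point A488 standard curve.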
# TSHR agonist: agonists of human thyroid stimulating hormone receptor; HEK293-CNG-TSHR cells (CNG channel as cAMP sensor), membrane potential dye, cAMP; Potency, µM (series often up to 57.1 µM), inactives show top-dose activation, hits mostly activators; 0.48% of 73,000 active; AID 926; active = well fitted activation curve of enough size with the parental cells flat; inconclusive = any curve in the parental cells; inactive = parental cells flat and receptor cells flat or falling; also: potency is read from the fitted curve at half-maximal effect; % of control where 0% means no effect; weak receptor curves with flat parental cells got no call and are not listed
# Target sequence (P16473 whole entry, looked up): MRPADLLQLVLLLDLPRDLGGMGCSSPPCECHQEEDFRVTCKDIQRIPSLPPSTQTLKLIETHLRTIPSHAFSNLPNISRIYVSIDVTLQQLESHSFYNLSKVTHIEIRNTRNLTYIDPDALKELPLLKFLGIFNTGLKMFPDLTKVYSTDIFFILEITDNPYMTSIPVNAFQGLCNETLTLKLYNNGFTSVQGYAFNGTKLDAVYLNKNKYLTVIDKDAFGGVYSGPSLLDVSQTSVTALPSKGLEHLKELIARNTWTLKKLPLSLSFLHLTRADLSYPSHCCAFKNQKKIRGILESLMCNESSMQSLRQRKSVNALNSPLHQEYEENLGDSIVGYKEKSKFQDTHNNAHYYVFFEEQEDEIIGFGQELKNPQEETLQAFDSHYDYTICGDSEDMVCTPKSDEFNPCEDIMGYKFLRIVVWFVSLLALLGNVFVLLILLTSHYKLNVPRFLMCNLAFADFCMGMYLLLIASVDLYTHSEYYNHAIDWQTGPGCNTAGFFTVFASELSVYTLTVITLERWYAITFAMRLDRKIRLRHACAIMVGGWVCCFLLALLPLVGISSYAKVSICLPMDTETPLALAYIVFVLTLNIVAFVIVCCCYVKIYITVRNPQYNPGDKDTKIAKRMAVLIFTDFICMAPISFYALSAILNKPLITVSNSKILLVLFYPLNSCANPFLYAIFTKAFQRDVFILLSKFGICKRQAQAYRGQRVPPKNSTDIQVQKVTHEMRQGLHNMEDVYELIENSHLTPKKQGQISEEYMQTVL
#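 HEK 293 cells stably expressing TSHR and a cAMP-gated CNG channel; parental CNG-only cells as counterscreen. Cells preloaded 60 min with membrane potential dye plus 100 uM RO 20-1724, then compound 30 min; fluorescence read at 590 nm.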
# A647 autofl: compound fluoresces in the A647 spectral region. AID 592. 59,000 tested, under 10 active. max dye-equivalent concentration, M. Compound fluorescence, A647 channel (570/671 nm), Tris buffer; active means above 1 µM dye equivalent; inconclusive means 0.1 to 1 µM; inactive means 0.1 µM or less;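 also: values scaled relative to a standard on each plate; highest value over a series up to 38 µM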
#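 Each compound's intrinsic fluorescence at 570 nm excitation and 671 nm emission is measured across its concentration series in 100 mM Tris, pH 8.0, after 15 min at room temperature, and reported relative to an A647 curve.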
# AID923: qHTS Assay for Allosteric/Competitive Inhibitors of Caspase-1: Spectroscopic Profiling in AFC Spectral Region. Potency, µM (titrated, usually from 57.5 µM), without a hit: at the highest dose fluorescence increase, most hits filed as activators. compound fluorescence, AFC spectral region (405/520 nm); almost no hit is shown here. AID 923, 2007. 1.1% of 75,000 active; active = well fitted activation curve with a large enough effect; inconclusive = small, poorly fitted or top-dose-only effect;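 also: potency is read from the fitted curve at half-maximal effect; 0% is about no effect; scaled to a free AFC standard on each plate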
#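 Baseline compound fluorescence (AFC region, 405 nm ex/520 nm em) taken from the intercept of kinetic reads with 50 nM caspase-1 and 5 uM Ac-WEHD-AFC; normalized to an on-plate AFC standard curve; compounds titrated up to 57 uM.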
# Resorufin autofl: resorufin region autofluorescence | Compound fluorescence, resorufin region 547/598 nm, buffer; active compounds read high | AID 588 | max dye-equivalent concentration, M | 0.04% of 59,000 active; active = above 10 nM dye equivalent; inconclusive = 1 to 10 nM; inactive = 1 nM or less; a few of its hits are not listed in these tables; also: highest value over a series up to 38 µM
#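 Compounds in 100 mM Tris buffer, pH 8.0, incubated 15 min at room temperature, then read with 547 nm excitation and 598 nm emission filters. Fluorescence was converted to dye-equivalent concentration using an on-plate six-point resorufin standard curve.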
# * = called active by the depositor; i = inactive; ? = inconclusive; / = not tested or not shown; [ ] = remark or other dose. Some of the compounds tested, so the mix of outcomes need not match the whole.
SMILES,A488 autofl,TSHR agonist,A647 autofl,AID923,Resorufin autofl
COc1ccccc1NC(=O)CSc1nnc(-c2ccc(C)cc2)o1,i,3.7%,5.21e-08,-0.4%,i
Cc1cc(C)n(-c2nc3c(c(=O)n(C)c(=O)n3C)n2C)n1,i,-8.7%,1e-09,7.4%,i
CN(C)C[C@H]1CCC2=C(C1=O)C(c1ccc(Cl)c(Cl)c1)C1=C(CC[C@H](CN(C)C)C1=O)O2,i,8.2%[11.4 µM],1.8e-08,1.7%[11.5 µM],i
CCC(=O)c1cc(F)c(N2CCN(C(=O)c3ccco3)CC2)cc1C,/,14.8%,/,-1.5%,/
CCOC(=O)c1ccoc1CSCC(=O)N1CCN(S(=O)(=O)c2ccc(C)cc2)CC1,i,5.9%,1e-09,-0.6%,i
COc1ccc(C(=O)NCc2nnc(SCC(=O)N3CCc4ccccc43)o2)cc1OC,i,-1.8%[11.4 µM],1e-09,0.4%,i
c1cc2c3c(c1)c1c(n3CCNC2)CCCC1,/,11.8%,/,-2.0%,/
Cn1c(=O)[nH]c(=O)c2c1nc(Br)n2CC(O)COCc1ccccc1 (centres undefined),i,-17.8%,3.6e-08,-0.4%,i
CC(=O)NC(=S)c1c(N)n(Cc2ccccc2)c(=O)n(C)c1=O,i,5.1%,2.53e-08,2.1%,i
CCC(=O)Oc1ccc(C2N(C(=O)CC)CCN2S(=O)(=O)c2ccc(C)cc2)cc1OC (centres undefined),i,25.1%,1e-09,0.0%,i
Cc1ccc(Cn2c(NCCCn3ccnc3)nc3c2c(=O)n(C)c(=O)n3C)cc1,i,7.1%,6.8e-09,-0.6%,i
N#Cc1c(NC(=O)CSc2nnc(-c3ccccc3O)n2-c2ccccc2)sc2c1CCCC2,i,15.0%,3.66e-08,-0.3%,i
CC(=O)Oc1ccc(-c2nc(-c3cccnc3)no2)cc1,i,-3.3%,1e-09,-0.3%,i
COc1ccc(OC)c(C2SCCN2S(=O)(=O)c2cccc(C(F)(F)F)c2)c1 (centres undefined),i,?,1e-09,7.3%,i
COCCN1C(=O)c2oc3ccccc3c(=O)c2C1c1ccc(C(=O)OC)cc1 (centres undefined),/,-3.4%,/,-0.7%,/
CN1CCc2c(sc3c2c(=O)n(-c2ccccc2)c2nnc(SCc4ccccc4)n32)C1,i,/,2.05e-08,/,i
Cc1c(-c2nn(C)c(=O)c3ccccc23)oc2ccc(F)cc2c1=O,i,/,1e-09,3.0%,i
Cc1cc(C)cc(N2C(=O)C3CC=CCC3C2=O)c1 (centres undefined),i,-0.2%,1e-09,0.7%,i
CCN1CCN(Cc2nc3c(c(=O)n(C)c(=O)n3C)n2Cc2ccc(Cl)cc2Cl)CC1,/,16.3%,/,-4.4%,/
O=C(CCn1c(=O)[nH]c2ccsc2c1=O)N1CC(=O)N(CCc2ccccc2)C(=O)C1,i,-8.7%,1e-09,0.7%,i
O=P(O)(c1ccc(Cl)cc1)c1ccc(Cl)cc1,/,6.4%,/,1.4%,/
O=C(Nc1cccc(OCC(=O)N2CCOCC2)c1)C1CCCCC1,i,15.4%,1e-09,-0.3%,i
CCc1cc(=O)oc2c(CN3CCN(C)CC3)c(O)c(Cl)cc12,i,/,1e-09,/,i
CCc1ccc(S(=O)(=O)NCc2csc(C)n2)s1,i,9.5%[11.4 µM],5.8e-09,-2.0%,i
N#Cc1cc2c(nc1SCc1ccncc1)CCC2,i,35.7%,8.08e-08,-0.6%,i
# Additional records follow:
SMILES,A488 autofl,TSHR agonist,A647 autofl,AID923,Resorufin autofl
Nc1nc2n(n1)C(c1ccco1)CC(c1ccc(F)cc1)N2 (centres undefined),/,-10.8%,/,0.4%,/
O=S(=O)(/N=S1/CC=CCN1S(=O)(=O)c1ccccc1)c1ccccc1 (centres undefined),i,-19.7%,1.2e-09,-1.2%,i
COc1cc(C2C3C(=O)N(Cc4ccccc4)C(=O)C3ON2c2ccccc2)cc(OC)c1O (centres undefined),i,15.8%,1.6e-08,-0.5%,i
Cc1ccc(C(=O)N2CCN(c3ccccc3)CC2)cc1S(=O)(=O)N1CCCC1,i,13.3%,8.1e-09,-0.5%,i
CC(C)C(=O)Nc1ccc(NC(=O)c2ccco2)cn1,i,-8.4%,2.4e-09,6.2%,i
C=CCC(Nc1ccco1)c1ccccc1 (centres undefined),i,6.9%,5.85e-08,1.7%,i
CCOC(=O)N1CCC(N(C(=O)Nc2ccc(Cl)c(Cl)c2)C(C)CC)CC1 (centres undefined),i,7.7%,1e-09,0.8%,i
CCOC(=O)c1c(C)[nH]c(C(=O)Cn2c(=O)c3c(ncn3CC)n(Cc3ccccc3)c2=O)c1C,i,-1.0%,1.69e-08,2.5%,i
CC(C)C(=O)Nc1cccc2nsnc12,i,0.8%,2.3e-09,10.8%,i
COc1ccc(S(=O)(=O)N(C)CC(=O)N2CCC(C)CC2)cc1Cl,i,1.4%,4.84e-08,0.7%,i
Cn1cccc1C(=O)N1CCC2(CCN(Cc3ccccc3)CC2)CC1,i,2.2%,5.9e-09,4.3%,i
CO[C@@H]1COC(=O)[C@@H](C)COC(=O)[C@@H](C)NC(=O)C/C=C\[C@@H]1C,/,-2.8%[11.4 µM],/,-1.9%[11.5 µM],/
CC1CCN(S(=O)(=O)c2cccc(C(=O)Nc3nccs3)c2)CC1,i,?,1.75e-08,-2.0%,i
CC(C)NC(=O)N1CC[C@@]2(CCCN(C(=O)c3csnn3)C2)C1,i,3.6%,2.37e-08,0.3%,i
CCn1c(CCNC(=O)c2ccc(OC)c(OC)c2)nc2ccccc21,i,?,4.8e-09,-0.7%,i
COc1nnc(-c2ccc(N3CCOCC3)c(NC(C)=O)c2)c2ccccc12,i,-3.0%,1.19e-08,-0.6%,i
Cc1cccc(OCCCCCn2ccnc2)c1C,/,?,/,-0.7%,/
CN(C(=O)c1ccco1)c1nnc(C23CC4CC(CC(C4)C2)C3)s1,/,25.2%,/,0.5%,/
O=C(c1c(Cl)cccc1Cl)N1CCCCCC1,i,7.2%,3.8e-09,0.8%,i
CC1(C)CC(=O)C=C(NC2CCCCCC2)C1,/,11.5%,/,1.2%,/
COc1ccccc1Nc1nnc(SCC(=O)N2CCCC2)s1,i,-8.1%,1e-09,-2.4%,i
COC(=O)c1[nH]c2cc(C)ccc2c1NC(=O)CN1CCCc2ccccc21,i,-6.9%,8.5e-09,4.0%,i
CC(=O)Nc1ccc(S(=O)(=O)NCc2csc(C)n2)cc1,i,-3.3%[11.4 µM],1e-09,0.3%,i
O=C(c1cccc(F)c1)N1CCC[C@@]2(CCN(Cc3nccs3)C2)C1,i,0.5%,8.9e-09,1.9%,i
C/C(N)=C(/C#N)C(=O)CSc1nnc(Cc2ccccc2F)n1N,i,-1.7%,6.4e-08,-1.3%,i
# Other structures follow:
SMILES,A488 autofl,TSHR agonist,A647 autofl,AID923,Resorufin autofl
CCOC(OCC)P(=O)(C(C)C)C(C)C,/,3.4%,/,4.7%,/
COc1ccccc1N1CCN(C(=O)CCn2c(=O)[nH]c3ccsc3c2=O)CC1,i,-4.5%,1.5e-09,-0.1%,i
Cc1ccc(CN2C(=O)CCC2C(=O)NCC2CCCO2)cc1 (centres undefined),i,-2.4%,3.35e-08,-1.3%,i
COc1cccc(CNc2cccc3cccnc23)c1O,i,24.5%,1.8e-09,0.6%,i
Cc1cc(C)n(-c2nnc(C)n2NS(C)(=O)=O)n1,i,-1.6%,1e-09,0.0%,i
Cn1c(SCc2ccc(C#N)cc2)nnc1-c1ccccc1,i,9.8%,6.5e-09,-1.2%,i
Cn1c(=O)c2c(nc(N3CCN(Cc4ccccc4)CC3)n2CCCc2ccccc2)n(C)c1=O,i,8.6%,4.6e-09,-1.0%,i
CCC1CCCCN1C(=O)CSc1nnc(-c2cccc(Cl)c2)o1 (centres undefined),/,?,/,-1.3%,/
CCN(CC)CCCn1c(C)cc2c(c1=O)C(c1ccc(OC)c(OC)c1OC)C(C#N)=C(N)O2 (centres undefined),i,/,3.08e-08,/,i
CCOC(=O)CC(=O)CSc1ccc2nnc(-c3ccc(F)cc3)n2n1,i,0.0%[11.4 µM],1e-09,0.1%,i
COc1cccc(NC(=O)CSc2nnc(-c3ccc(C)cc3)o2)c1,/,28.0%,/,1.4%,/
Cn1nnnc1SCC(=O)Nc1ccccc1C(=O)NCc1ccccc1,/,21.4%[11.4 µM],/,0.2%,/
CCOc1ccc2cc(C#N)c(SCC(=O)N3CCOCC3)nc2c1,i,6.2%,4.76e-08,2.9%,i
CCCn1c(SCC(=O)NCc2ccco2)nc2c1c(=O)n(C)c(=O)n2C,i,-3.3%,2.38e-08,0.6%,i
c1nc(NC2CCCC2)c2[nH]cnc2n1,/,-0.6%,/,-2.7%,/
CCOC(=O)c1sc(NC(=O)CSc2nnnn2-c2ccccc2)c(C(=O)OCC)c1C,i,/,2.5e-09,0.3%,i
CCOC(=O)c1cc2sccc2n1CC(=O)Nc1ccc(OC)c(OC)c1,i,-4.2%,2.7e-08,-0.6%,i
CN(CCNS(=O)(=O)c1ccc2c(c1)oc(=O)n2C)Cc1ccccc1,/,-0.3%,/,-0.5%,/
COc1ccc(O[C@H]2C=C[C@@H](c3ccccc3)O[C@H]2COC(=O)NCc2cccc3ccccc23)cc1,/,-3.1%[11.4 µM],/,-1.4%[11.5 µM],/
Cc1ccc(S(=O)(=O)NCC(=O)OCC(=O)Nc2ncc(Cl)cc2Cl)cc1,i,0.7%,3.1e-09,-0.1%,i
O=C(c1ccccc1)N1CCN(C(=O)N2CCCCC2)CC1,i,4.8%,1.99e-08,-1.9%,i
c1ccc2c(c1)CC1(CCCC1)n1nnnc1-2,i,/,2.69e-08,-1.4%,i
COc1ccccc1-c1noc(-c2ccncc2)n1,i,3.1%,1e-09,-1.4%,i
O=C(c1ccco1)N1CCN(c2ccc(S(=O)(=O)N3CCCC3)cc2)CC1,i,18.9%,7e-09,0.1%,i
COc1ccc2c(c1)c1nnc(SC)nc1n2C,i,?,3.8e-09,0.1%,i

# Reprinted from the part before: five entries, followed by the next part.
SMILES,A488 autofl,TSHR agonist,A647 autofl,AID923,Resorufin autofl
O=C(c1ccccc1)N1CCN(C(=O)N2CCCCC2)CC1,i,4.8%,1.99e-08,-1.9%,i
c1ccc2c(c1)CC1(CCCC1)n1nnnc1-2,i,/,2.69e-08,-1.4%,i
COc1ccccc1-c1noc(-c2ccncc2)n1,i,3.1%,1e-09,-1.4%,i
O=C(c1ccco1)N1CCN(c2ccc(S(=O)(=O)N3CCCC3)cc2)CC1,i,18.9%,7e-09,0.1%,i
COc1ccc2c(c1)c1nnc(SC)nc1n2C,i,?,3.8e-09,0.1%,i
Cc1cc(N=CC2=C(O)CCCC2=O)no1,/,-3.7%,/,2.2%,/
CCOC(=O)N1CCC(N2C(=O)c3ccccc3C2Nc2cccnc2)CC1 (centres undefined),/,11.7%,/,-0.2%,/
CCOC(=O)N1CCN(CC(=O)Nc2c(C(=O)OC)[nH]c3cccc(Cl)c23)CC1,i,17.7%,2.9e-08,-0.6%,i
CN=c1oc2ccc(Cl)cc2cc1C(N)=O,i,-22.6%,2.79e-08,1.2%,i
COc1ccc2cnn(-c3ccccc3)c(=O)c2c1OC,i,-0.8%,9e-09,-0.3%,i
Cc1ccc2oc(=O)c3cnn(CC(=O)NCCc4ccsc4)c3c2c1,/,20.8%,/,-0.3%,/
CCCCCn1c(=O)[nH]c2cc(C(=O)NCc3ccc4c(c3)OCO4)ccc2c1=O,i,9.2%,8.2e-09,0.4%,i
C=C1c2cc(CC)ccc2NC(=O)N1c1ccc(C)cc1,/,-8.2%,/,0.1%,/

# Screens: PubChem, National Center for Advancing Translational Sciences (NCATS)
